From PubChem
KCNQ2 inh: KCNQ2 potassium channel inhibitors, primary screen, cell-based, CHO-K1, FluxOR thallium flux, B-score (AID 2156) | O88943 | 20 min; hits give low values; only compounds with negative scores are shown here; some inactives read as strong as hits | B-score at 10 µM | 310,000 compounds, 1.1% hits;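 active = fluorescence ratio B-score at most minus 3 library SDs, with starting brightness B-score within 2 library SDs, cut at about -5.5 in these data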
Target sequence (O88943 whole entry, looked up): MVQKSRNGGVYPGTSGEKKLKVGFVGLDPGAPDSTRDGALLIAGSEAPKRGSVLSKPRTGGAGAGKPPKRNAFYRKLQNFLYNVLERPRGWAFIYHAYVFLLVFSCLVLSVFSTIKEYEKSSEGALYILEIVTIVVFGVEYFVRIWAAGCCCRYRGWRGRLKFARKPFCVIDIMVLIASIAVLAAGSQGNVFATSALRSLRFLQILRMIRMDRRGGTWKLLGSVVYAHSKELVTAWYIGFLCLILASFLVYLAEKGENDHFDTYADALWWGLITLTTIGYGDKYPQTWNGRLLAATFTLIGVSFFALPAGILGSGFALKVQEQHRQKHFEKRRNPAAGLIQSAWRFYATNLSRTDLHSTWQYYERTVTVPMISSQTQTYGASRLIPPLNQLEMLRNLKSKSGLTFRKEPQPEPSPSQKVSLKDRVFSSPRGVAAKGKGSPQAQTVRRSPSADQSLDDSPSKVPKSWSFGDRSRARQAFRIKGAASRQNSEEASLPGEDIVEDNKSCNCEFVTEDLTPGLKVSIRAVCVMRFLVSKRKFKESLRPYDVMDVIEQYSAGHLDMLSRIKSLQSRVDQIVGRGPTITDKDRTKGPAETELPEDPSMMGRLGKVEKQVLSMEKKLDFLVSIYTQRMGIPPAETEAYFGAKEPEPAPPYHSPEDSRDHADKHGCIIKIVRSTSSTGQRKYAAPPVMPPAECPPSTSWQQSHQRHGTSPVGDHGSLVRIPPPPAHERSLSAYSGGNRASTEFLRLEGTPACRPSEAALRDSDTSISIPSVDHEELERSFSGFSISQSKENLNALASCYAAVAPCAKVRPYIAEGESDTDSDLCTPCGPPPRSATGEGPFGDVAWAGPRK
KCNQ2 inh baseline: also measured in KCNQ2 inh; calls as there; B-score; measured here: initial fluorescence intensity artifact check;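 brightness before thallium and not channel activity; 0 = typical well and far values either way flag optical interference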
The depositor's hits bear a star; i = inactive.

Preview (three entries):
Results follow in this order: KCNQ2 inh baseline	KCNQ2 inh
CSc1cccc(NC(=O)Nc2nc3c(C)cccc3s2)c1
→ -1.27	i
COc1ccc(NC(=S)NCc2ccc(S(N)(=O)=O)cc2)c(OC)c1
→ -0.88	i
CN(C)CCN(C(=O)c1ccc2c(c1)OCCO2)c1nc2cc3c(cc2s1)OCO3
→ -0.44	i

The listing (from the top)
Results follow in this order: KCNQ2 inh baseline	KCNQ2 inh
CSc1cccc(NC(=O)Nc2nc3c(C)cccc3s2)c1
→ -1.27	i
COc1ccc(NC(=S)NCc2ccc(S(N)(=O)=O)cc2)c(OC)c1
→ -0.88	i
CN(C)CCN(C(=O)c1ccc2c(c1)OCCO2)c1nc2cc3c(cc2s1)OCO3
→ -0.44	i
CCOC(=O)N1CCN(C(=O)CSCc2nc(-c3ccccc3C)oc2C)CC1
→ 2.52	i
COc1ccc(/C(C)=N/NC(=O)c2sccc2-n2cccc2)cc1
→ -1.28	i
CCOC(=O)c1ccc(NC(=O)COc2ccccc2CNCCc2ccccc2)cc1
→ -0.65*	-6.77*
CC1CCCN(C(C(=O)Nc2ccc3c(c2)OCCO3)c2ccccc2)C1 (stereo unspecified)
→ -1	i
COc1ccccc1N1CCN(C(=O)C(Sc2ccccc2)c2ccccc2)CC1 (stereo unspecified)
→ 0.13*	-5.74*
O=[N+]([O-])c1cc2c(cc1CN1CCN(c3ccc(F)cc3)CC1)OCO2
→ 0.3	i
Cc1ccccc1C(=O)Nc1ccc(C(=O)N/N=C/c2ccc(O)c(Br)c2)cc1
→ 0.01	i
CCSC(=Nc1ccccc1)C1=C(O)COC1=O
→ 0.02	i
COc1ccc(C(=O)CN2C(=O)c3ccccc3C2=O)c(OC)c1C
→ -0.71	i
Cc1ccc(Cl)cc1NC(=O)CN1CCOCC1
→ -0.46	i
COc1ccc(Cl)c(NC(=O)NCCN2CCN(c3ccccc3)CC2)c1
→ 1.37	i
O=C(Nc1cccnc1)c1ccc(Cl)c([N+](=O)[O-])c1
→ -0.23	i

Entries from the list above that have a nitro group on carbon:
Results follow in this order: KCNQ2 inh baseline	KCNQ2 inh
O=[N+]([O-])c1cc2c(cc1CN1CCN(c3ccc(F)cc3)CC1)OCO2
→ 0.3	i
O=C(Nc1cccnc1)c1ccc(Cl)c([N+](=O)[O-])c1
→ -0.23	i

Other entries follow.
Results follow in this order: KCNQ2 inh baseline	KCNQ2 inh
CCn1c(SCC(=O)Nc2nnc(C)s2)nnc1C(C)NC(=O)c1ccccc1 (stereo unspecified)
→ -2.1	i
COc1ccc(NC2CCCN(C(=O)CSc3ccccc3)C2)cc1 (stereo unspecified)
→ -0.05	i
O=C(Nc1ccc(-c2ccccc2)cc1)c1ccccc1
→ -0.4	i
O=C(O)/C=C/C(=O)N1N=C(c2ccco2)CC1c1ccco1 (stereo unspecified)
→ 0.07	i
O=C(Nc1cccc(-c2cn3ccccc3n2)c1)c1cnccn1
→ 2.49	i
C[C@@H]1CCC(=O)N(CC[C@H](Oc2ccccc2)c2ccccc2)CC1
→ -0.21	i
COc1ccc(-c2n[nH]c(=S)n2-c2ccccc2C)cc1OC
→ 0.06	i
COc1ccc(N2CCN(C(=O)c3ccc(CNS(=O)(=O)c4ccc(C)cc4)cc3)CC2)cc1
→ -0.91	i
CCOc1ccccc1N(CC(=O)NC1CCCCC1)C(=O)CCCC(=O)Nc1ccccn1
→ 1.38	i
Cc1nc2ccc(-c3ccccc3)cc2o1
→ 1.26	i
C/C(=N\NS(=O)(=O)c1ccccc1)c1ccc2c(c1)OCO2
→ 1.83	i
CCCCN(C(=O)c1cccc(C)c1)c1c(N)n(CCC)c(=O)[nH]c1=O
→ -0.37	i
COc1ccccc1NC(=O)CN1C(=O)CSC(C)C1=O (stereo unspecified)
→ 0.27	i
COC(=O)[C@@]12CCCCN1[C@H](c1ccc(-c3ccccc3)cc1)[C@@H]1C(=O)N(C)C(=O)[C@@H]12
→ -2.27	i
COC(=O)c1ccc(S(=O)(=O)NNC(=O)COc2ccc(C)cc2)cc1
→ 2.66	i

Compound profiles, from the list above.
Shown for `C/C(=N\NS(=O)(=O)c1ccccc1)c1ccc2c(c1)OCO2` → KCNQ2 inh baseline = 1.83; KCNQ2 inh = i
Shown for `O=C(O)/C=C/C(=O)N1N=C(c2ccco2)CC1c1ccco1` (stereo unspecified) → KCNQ2 inh baseline = 0.07; KCNQ2 inh = i

The listing continues:
Results follow in this order: KCNQ2 inh baseline	KCNQ2 inh
Brc1ccc(-c2csc(N3CCc4ccccc4C3)n2)cc1
→ 1.64	i
Cc1ccc(C(=O)NCCNC(=O)c2ccco2)cn1
→ 0.35	i
COc1ccc(/C=C2\N=C(SC)N(c3ccccc3OC)C2=O)cc1
→ 0.34	i
O=C(NCC1CCCN1S(=O)(=O)c1ccccc1)C(=O)NC1CC1 (stereo unspecified)
→ 1.52	i
COc1ccccc1CNS(=O)(=O)c1ccc(-c2cnc(C3CC3)o2)cc1
→ -0.28	i
COc1ccccc1N1CCN(C(=O)c2cc(N3C(=O)C4C5CCC(C5)C4C3=O)ccc2Cl)CC1 (stereo unspecified)
→ -0.63	i
COC(=O)c1c(NC(=S)Nc2ccc(C(=O)N3CCOCC3)cc2)sc2c1CCC2
→ 0.47	i
CC(=O)c1ccc(OCCN2CCOCC2)cc1
→ 0.01	i
COc1cccc(C2CC(c3cccs3)=NN2C(=O)CSc2nc3c(cnn3-c3ccc(F)cc3)c(=O)[nH]2)c1OC (stereo unspecified)
→ -1.09	i
COc1cc(/C(O)=C(\C#N)c2nc3ccccc3[nH]2)cc(OC)c1OC
→ 0.29	i
COc1ccc(-n2c(-c3ccc(F)cc3)cnc2SCC(=O)NCc2ccco2)cc1
→ -1.06	i
OCCN(Cc1ccccc1)c1ncnc2sccc12
→ -1.81	i
Cc1noc(C)c1CSc1nc2ccccc2nc1NS(=O)(=O)c1ccc(Cl)cc1
→ -1.11	i
c1ccc2c(NCC3CCCO3)nc(-c3ccncc3)nc2c1 (stereo unspecified)
→ -0.84	i
CCO[C@@H]1OC(C(=O)N2CCN(Cc3ccc4c(c3)OCO4)CC2)=C[C@H](c2cn(C(C)=O)c3ccccc23)[C@H]1CCCO
→ -0.16	i
COc1ccccc1NC(=O)c1cc(Sc2nncn2C)nc2ccccc12
→ -1.42	i
O=C(CSc1nnc(-c2ccccc2O)o1)N1CCc2ccccc2C1
→ -0.6	i
Nc1n[nH]c(N)c1N=Nc1ccccc1
→ 2.09	i
COc1ccc(NCc2nnc(SCC(=O)Nc3ccc(OC)cc3OC)o2)cc1
→ -1.69	i
O=C(NCCO)c1cccc2c1-c1ccccc1C2=O
→ -2.23	i
Cc1n(-c2ccccc2)c2ccc(Cl)cc2[n+]1CCO
→ -1.57	i
COc1ccc(Br)cc1C1Nc2ccccc2C(=O)N1NC(=O)c1ccncc1 (stereo unspecified)
→ 0.32	i
O=C(NCCCN1CCOCC1)c1onc(CSc2ccccn2)c1C(=O)NCCCN1CCOCC1
→ 0.13	i
COc1cccc(/C=N/NC(=O)c2c(C)nc3ccc(Br)cn23)c1O
→ -0.16	i
O=C(CNc1ccc(Br)cc1)c1ccc(Br)s1
→ 0.17	i
Cc1onc(-c2ccccc2Cl)c1C(=O)NCCn1c(C)cc2ccccc21
→ -0.89*	-11.9*
COc1ccccc1[C@@H]1C(c2cccc(Cl)c2)=NN(c2ccccc2)[C@H]1C(=O)N1CCOC1=O
→ -1.37	i
CC1(C)CC2CC(C)(CN2C(=O)C23CCC(C)(C(=O)O2)C3(C)C)C1 (stereo unspecified)
→ -0.6	i
O=C1NN=C(c2ccc(Cl)cc2)CC1c1cccc(Br)c1 (stereo unspecified)
→ 2.38	i
Clc1ccc(-c2cn3cc(Br)ccc3n2)cc1Cl
→ -1.83	i
CCCCC(=O)NC(=S)Nc1cccc(Cl)c1N1CCCCC1
→ -0.23	i
Nc1nc(SCC(=O)Nc2ccc([N+](=O)[O-])cc2)n[nH]1
→ 1.22	i
Cc1nn(Cc2ccccc2)c(Cl)c1C(=O)OCc1nnc(-c2ccc(Cl)cc2)o1
→ -1.42*	-6.09*
CNc1ccccc1-n1ccc(-c2ccccc2)n1
→ -1.31	i
O=C(C1CCN(Cc2ccc(Cl)cc2)CC1)N1CCN(C(c2ccccc2)c2ccccc2)CC1
→ -0.7	i
Cc1cccc(C)c1OCc1nc2ccccc2c(=O)n1/N=C/c1c[nH]c2ccccc12
→ -0.31	i
COc1cccc(CN2CCNC(=O)C2CC(=O)NCCn2ccc3ccccc32)c1OC (stereo unspecified)
→ 0.09	i
CC(C)(C)NC(=O)CN(C(=O)c1snc(C(=O)NC2CCCCC2)c1N)c1ccccc1F
→ -0.04	i
O=C(OC(C(=O)Nc1cc(Cl)cc(Cl)c1)c1ccccc1)C1=COCCO1 (stereo unspecified)
→ -0.55	i
O=C(O)c1ccc(N/N=C/c2ccncc2)cc1
→ -1.1	i
O=C(NCCN1CCOCC1)c1ccc2c(c1)N(Cc1ccc(F)cc1)C(=O)CS2
→ 1.3	i
O=C(CSc1nc2c(cnn2-c2ccc(F)cc2)c(=O)[nH]1)N1CCCCCC1
→ -1.19	i
NC(=O)COc1ccccc1
→ -0.38	i
Cc1ccc(-c2nnn(CC(=O)N3c4ccccc4CCc4ccccc43)n2)cc1
→ -2.35	i
CCN1CC(CN(C)Cc2cn(-c3cccc(C)c3)nc2-c2cccc(F)c2)CC1=O (stereo unspecified)
→ -1.17	i
CCN(C(=O)COC(=O)CNC(=O)c1ccc(F)cc1)C1CCS(=O)(=O)C1 (stereo unspecified)
→ -0.01	i
CCOC(=O)C1C(=O)C=C(Nc2ccccc2F)CC1c1ccccc1 (stereo unspecified)
→ -2.37	i
COc1ccc(-c2cc(C(=O)N3CCCCC3)c3ccccc3n2)cc1OC
→ -1.16	i
CCCCn1c(N)c(N(CC)C(=O)CSCC(=O)Nc2ccc(OC)cc2)c(=O)[nH]c1=O
→ -0.93	i
COc1ccc(NC(=O)Nc2ccc3c(c2)CCC3)cc1
→ -0.03	i
CCCCCCCCOc1ccc(C2CC(=O)NC2=O)cc1 (stereo unspecified)
→ 0.38	i
Cc1cc(C(=O)OCC(=O)NCc2ccco2)c(C)n1-c1ccc(F)cc1
→ -1.55	i
CCN(CC)CCNC(=O)Cn1cnc2sc(C)c(S(=O)(=O)N3CCOCC3)c2c1=O
→ 0.14	i
Cc1cc(=O)n2nc(N3CCC(C(=O)NCc4ccc(Cl)cc4)CC3)sc2n1
→ 0.54	i
O=C(O)COc1ccccc1/C=N/NC(=O)CNC(=O)c1ccc(F)cc1
→ -0.23	i
O=C(NCCCc1ccccc1)c1cccc(Br)c1
→ 1.94	i
Cc1ccccc1NC1=C/C(=N\S(=O)(=O)c2cccs2)c2ccccc2C1=O
→ -0.68	i
O=C(CCC1CCCC1)N1CCC(N2CCCCCC2)CC1
→ 1.36	i
CCOC(=O)N1CCN(C(=O)CSCc2ccccc2C)CC1
→ -2.21	i
COC(=O)[C@@H](Cc1ccccc1)NC(=O)NCCc1ccccc1
→ -0.67	i

More results follow.
Results follow in this order: KCNQ2 inh baseline	KCNQ2 inh
COc1cc2c(cc1OC)C(C)N(C(=O)c1cc3ccccc3o1)CC2 (stereo unspecified)
→ -1.31	i
CC(=O)N/C(N)=N/c1nc2cc([N+](=O)[O-])ccc2o1
→ 1.74	i
CN(C)c1cccc(C(=O)OCC(=O)Nc2ccccc2Cl)c1
→ -1.02	i
COc1ccc(NC(c2ccccc2)c2ccncc2)cc1 (stereo unspecified)
→ 0.34	i
O=C(Nc1ccccc1C(F)(F)F)c1cc2ccccc2o1
→ 0.6	i
CCc1ccc(NCCC(=O)c2ccc(Br)cc2)cc1
→ -0.51	i
CSc1nc2cc(C)nn2c(-c2ccccc2Cl)c1C#N
→ 0.17	i
CCc1ccc(NC(=O)CCNC(=O)Cn2cnc3ccccc3c2=O)cc1
→ 0.52	i
Cc1ccccc1C(=O)NNC(=S)Nc1cccc(C(F)(F)F)c1
→ -1.31	i
Cc1sc2nc(CN(C(=O)c3cccs3)C3CCCC3)[nH]c(=O)c2c1C
→ -0.01	i
O=C1C=C(c2cccc3c2oc2ccccc23)CCC1
→ -2.87	i
CCn1c(N2CCN(C(=O)NC3CCCCC3)CC2)nc2ccccc21
→ -0.79	i
O=C(NCCN1CCc2ccccc2C1)Nc1ccc([N+](=O)[O-])cc1
→ 0.6	i
c1ccc2c(CN3CCSCC3)cccc2c1
→ 0.65	i
COc1ccccc1/C=C/C(=O)OCc1nc2ccccc2c(=O)[nH]1
→ -0.75	i
C=C(C)c1cccc(C(C)(C)NC(=O)N2CCN(c3ccccc3OC)CC2)c1
→ -0.85	i
Cn1c(=O)[nH]c(=O)c2c1nc(Br)n2CCCO
→ -0.84	i
O=C1NC(c2ccc(Cl)cc2)Nc2ccccc21 (stereo unspecified)
→ -1.45	i
CC(=O)Nc1c(O)nc(SCC(=O)Nc2cccc(C)c2)[nH]c1=O
→ -1.07	i
Cc1ccc(C)c(NC(=O)CSc2nnc(CSc3nc(C)cc(C)n3)n2Cc2ccco2)c1
→ -2.73	i
O=C(CSc1ncccn1)NC(=O)Nc1ccc2c(c1)OCCO2
→ -0.06	i
CCn1c(=O)c(C(=O)NCc2ccc(OC)cc2)c(O)c2ccccc21
→ 0.2	i
COc1ccc(NC(=O)CSc2c3c(nc4cc(Cl)ccc24)CCCC3)cc1OC
→ -1.4	i
CCOC(=O)c1sc(N)c(C#N)c1CSc1nnc(C2CCCCC2)n1N
→ 0.03	i
COc1ccccc1-c1noc(CCC(=O)Nc2cccc(C)c2)n1
→ -0.53	i
O=C(CSc1cn(Cc2ccccc2)c2ccccc12)N1CCOCC1
→ -0.1	i
CCc1cccc(CC)c1NC(=S)NCC(c1cccnc1)N1CCOCC1 (stereo unspecified)
→ -0.39	i
CCc1ccc(NC(=O)C2CCN(c3c(N4CCCC4)c(=O)c3=O)CC2)cc1
→ -0.27	i
O=C(COC(=O)C1CC(=O)N(c2ccc3c(c2)OCCO3)C1)NC1CCCc2ccccc21 (stereo unspecified)
→ 2.62	i
O=C(O)CN1CCN(Cc2ccc(F)cc2Cl)C1=O
→ 0.32	i

Only part of the results is shown; the hit share may differ from the screen's.
